Env fusion inh: blocks HIV Env-driven cell-cell fusion | HeLa-JRFL Env/CEM21 cell fusion, luciferase | inhibition, % at 12.3 µM | 1.1% of 360,000 active | AID 651610;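 active means mean replicate inhibition score of at least 50 and every replicate individually at or above 50; inconclusive means only one of the two criteria met; inactive means mean below 50 and not all replicates reaching 50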;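 further: 0% = plate neutral controls and 100% = maraviroc near 300 nM; one replicate is shown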
PABP FP inh: PABP-poly(A) binding inhibition; P11940; PABP-poly(A) RNA binding, fluorescence polarization; inhibition, % at 35 µM; 1% of 290,000 active; AID 2014;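 active means 50% or more with normal probe brightness, or confirmed in later tests; inconclusive means above 50% with abnormal brightness, or retests that disagree; inactive means below 50% or failed in later tests; about a fifth of its hits are not listed in these tables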;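 further: calls also rest on retests at 20 µM and on dose response follow-up; controls were probe without protein and protein plus probe with vehicle; some compounds called inactive have numbers as strong as hits; many hits fall short of the cut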
Target sequence (P11940 whole entry, looked up): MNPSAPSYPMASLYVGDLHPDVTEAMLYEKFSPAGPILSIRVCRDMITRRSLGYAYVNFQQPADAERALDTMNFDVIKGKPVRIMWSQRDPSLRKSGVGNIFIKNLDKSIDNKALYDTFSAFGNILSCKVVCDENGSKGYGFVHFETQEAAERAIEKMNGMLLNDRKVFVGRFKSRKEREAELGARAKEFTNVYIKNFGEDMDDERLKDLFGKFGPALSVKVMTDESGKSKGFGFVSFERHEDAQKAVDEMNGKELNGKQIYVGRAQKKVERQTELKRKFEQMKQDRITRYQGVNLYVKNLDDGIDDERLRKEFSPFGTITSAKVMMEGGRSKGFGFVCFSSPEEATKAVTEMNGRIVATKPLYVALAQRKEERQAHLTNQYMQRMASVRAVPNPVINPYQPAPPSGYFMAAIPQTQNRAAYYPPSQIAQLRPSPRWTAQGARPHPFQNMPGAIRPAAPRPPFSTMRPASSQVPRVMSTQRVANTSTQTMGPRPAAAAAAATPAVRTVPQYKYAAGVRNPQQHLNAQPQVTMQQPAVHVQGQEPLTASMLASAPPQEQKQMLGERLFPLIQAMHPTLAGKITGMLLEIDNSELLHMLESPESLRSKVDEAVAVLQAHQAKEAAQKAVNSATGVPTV
MT1-MMP act inh: MT1-MMP (human) activation inhibition | GFP/RFP ratio change, % at 20 µM | HT1080 RFP-PRO-GFP cells, GFP/RFP ratio fluorescence, overnight; percent of plate control window, DMSO zero | P50281 | 0.061% of 360,000 active;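 active means GFP/RFP ratio change of at least 30% with cell ATP level not reduced by more than half and red fluorescence within 50% of control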; further: strong numbers were not always called active
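Read-out: GFP/RFP fluorescence ratio; Test system: RFP-PRO-GFP reporter HT1080 cells; Compound dosing: single-point 20 µM compound, 1% DMSO; Times: overnight compound exposure at 37 °C.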
Rce1 inhib: yeast Ras-converting enzyme inhibition. Q03530. calls only. AID 2563. 0.27% of 290,000 active. yeast membranes, quenched prenylated peptide cleavage fluorescence;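 active means fall in fluorescence gain of 50% or more versus controls, with final raw signal at or below 3038400; inconclusive means same 50% fall but final raw signal above 3038400; inactive means fall in fluorescence gain under 50%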;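 further: plate controls were neutral control wells for no effect and wells lacking membranes for full effect; tested at 10 µM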
UUG fidelity: yeast start codon fidelity modulation; S. cerevisiae UUG-firefly luciferase reporter, luminescence/redox ratio; activity score, % at 18.7 µM; 0.13% of 350,000 active; AID 602363;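 active means replicate mean at a twofold rise or more, about +100% in these data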;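 further: firefly luciferase made from a UUG start codon reports start codon fidelity; reporter light over untreated wells divided by growth signal over untreated wells; some hits fall short of that in this replicate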
CSC inhib: blocks cancer stem cells | AID 2717 | 1.1% of 300,000 active | inhibition, % at 7.5 µM | cancer stem cell-like cells viability, luminescence;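 active means mean at 75% or more and at least half the replicates too; inconclusive means mean and replicates disagree; tested in HMLE shEcad cells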;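 further: 0% = median of negative and 100% = median of positive control wells; the first replicate is given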
eIF4H FP inh: inhibitors of RNA binding by human eIF4H; eIF4H fluorescence polarization binding assay; inhibition, % at 35 µM; 0.94% of 290,000 active; Q15056;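 active means 50% or more with normal probe brightness, or confirmed in later tests; inconclusive means above 50% with abnormal brightness, or retests that disagree; inactive means below 50% or failed in later tests; about a fifth of its hits are not listed in these tables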;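 further: calls also rest on retests at 20 µM and on dose response follow-up; 0% = protein and probe with vehicle and 100% = probe without protein; strong numbers were not always called active; many hits fall short of the cut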
MT1-MMP act inh RFP: second read-out of MT1-MMP act inh, no call of its own (marks repeat the call); RFP signal change, %; measured here: RFP expression control read;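 0 = vehicle wells; hits needed this value within 50% of zero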
An asterisk follows results filed as active.

For N/C(=N\OC(=O)c1cc(Cl)ccc1Cl)c1ccccn1 the results were Env fusion inh -40, PABP FP inh 8, MT1-MMP act inh -2, Rce1 inhib inactive, CSC inhib 0, eIF4H FP inh 10 and MT1-MMP act inh RFP -2.
`CC/C(O)=C1\C(=O)CCCC1=NCc1nc2ccccc2[nH]1` gave Env fusion inh 15, PABP FP inh 4, MT1-MMP act inh 4, Rce1 inhib inactive, UUG fidelity -13, CSC inhib 13, eIF4H FP inh -2 and MT1-MMP act inh RFP -1.
Screening CC(C)(C)OC(=O)N1CCN(c2ccc([N+](=O)[O-])cc2)CC1 returned Env fusion inh 10, PABP FP inh -9, MT1-MMP act inh 4, Rce1 inhib inactive, UUG fidelity -5, CSC inhib -6, eIF4H FP inh -2 and MT1-MMP act inh RFP 2.
O=C(O)CSc1nnnn1-c1ccccc1 was read as Env fusion inh -31, PABP FP inh -6, MT1-MMP act inh 7, Rce1 inhib inactive, UUG fidelity -17, CSC inhib -10, eIF4H FP inh -1 and MT1-MMP act inh RFP 5.
O=C(Oc1ccc(Br)cc1C(=S)N1CCCCC1)c1cc([N+](=O)[O-])cc([N+](=O)[O-])c1 was read as PABP FP inh -5, MT1-MMP act inh 1, Rce1 inhib inactive, CSC inhib 6, eIF4H FP inh -6 and MT1-MMP act inh RFP 3.
CCNC(=S)N1CCC(NC(=O)C2CCCCC2)CC1 was read as Env fusion inh -43, PABP FP inh -3, MT1-MMP act inh 0, Rce1 inhib inactive, UUG fidelity -19, CSC inhib -2, eIF4H FP inh -9 and MT1-MMP act inh RFP 5.
Screening O=C(Nc1ccc(F)c(F)c1)c1ccccc1-c1ccccc1 returned Env fusion inh 26, PABP FP inh 13, MT1-MMP act inh 1, Rce1 inhib inactive, UUG fidelity -2, CSC inhib 4, eIF4H FP inh -14 and MT1-MMP act inh RFP 4.
Screening CC(NC(=O)C(NC(=O)C1CCCN1C(=O)OC(C)(C)C)C(C)C)C(N)=O (stereo unspecified) returned PABP FP inh 8, MT1-MMP act inh -4, Rce1 inhib inactive, UUG fidelity -15, CSC inhib -6, eIF4H FP inh 0 and MT1-MMP act inh RFP 4.
CCOC(=O)c1ccc(S(=O)(=O)N2CCN(C(=O)c3cc(=O)c4ccccc4o3)CC2)cc1 was read as Env fusion inh 5, PABP FP inh inconclusive, MT1-MMP act inh 2, Rce1 inhib inactive, UUG fidelity 7, CSC inhib -18, eIF4H FP inh 7 and MT1-MMP act inh RFP -1.
Screening COC(=O)c1sccc1NC(=O)c1cc(OC)c(OC)c(OC)c1 returned Env fusion inh 20, PABP FP inh 12, MT1-MMP act inh -1, Rce1 inhib inactive, UUG fidelity -20, CSC inhib -9, eIF4H FP inh 8 and MT1-MMP act inh RFP 0.
COc1ccc(C(=O)C[n+]2cn(C(F)F)c3ccccc32)c(F)c1 was read as Env fusion inh -20, PABP FP inh -8, MT1-MMP act inh -5, Rce1 inhib inactive, UUG fidelity -24, CSC inhib 3, eIF4H FP inh 0 and MT1-MMP act inh RFP 1.
Screening CC(C)C(=O)N1CCN(c2ccc(NC(=S)NC(=O)c3cc4ccccc4o3)cc2)CC1 returned Env fusion inh 15, PABP FP inh 8, MT1-MMP act inh 3, Rce1 inhib inactive, UUG fidelity -22, CSC inhib 2, eIF4H FP inh -7 and MT1-MMP act inh RFP -11.

Two compounds picked at random from those above:
Screening CC(C)(C)OC(=O)N1CCN(c2ccc([N+](=O)[O-])cc2)CC1 returned Env fusion inh 10, PABP FP inh -9, MT1-MMP act inh 4, Rce1 inhib inactive, UUG fidelity -5, CSC inhib -6, eIF4H FP inh -2 and MT1-MMP act inh RFP 2.
COc1ccc(C(=O)C[n+]2cn(C(F)F)c3ccccc32)c(F)c1 was read as Env fusion inh -20, PABP FP inh -8, MT1-MMP act inh -5, Rce1 inhib inactive, UUG fidelity -24, CSC inhib 3, eIF4H FP inh 0 and MT1-MMP act inh RFP 1.

Carrying on:
`CC(=O)c1ccc(N2CCC(c3cc(-c4ccc(Cl)cc4)n[nH]3)CC2)c([N+](=O)[O-])c1` gave PABP FP inh -6, MT1-MMP act inh 3, Rce1 inhib inactive, UUG fidelity -11, CSC inhib 101*, eIF4H FP inh -2 and MT1-MMP act inh RFP -12.
`COc1cccc(C(=O)Nc2sc3c(c2C#N)CCN(C(C)=O)C3)c1` gave Env fusion inh -128, PABP FP inh 0, MT1-MMP act inh -4, Rce1 inhib inactive, CSC inhib 9, eIF4H FP inh 22 and MT1-MMP act inh RFP -10.
Screening Cc1ccccc1CC(=O)NC1CCCc2ccccc21 (stereo unspecified) returned Env fusion inh -1, PABP FP inh 8, MT1-MMP act inh -2, Rce1 inhib inactive, UUG fidelity -9, CSC inhib 8, eIF4H FP inh 6 and MT1-MMP act inh RFP 0.
For COc1ccccc1NS(=O)(=O)c1ccc(S(=O)(=O)N2CCOCC2)cc1 the results were Env fusion inh 9, PABP FP inh -4, MT1-MMP act inh 4, CSC inhib -16, eIF4H FP inh -3 and MT1-MMP act inh RFP 4.
`O=C(O)c1ccc(Cn2c(SCc3cc(=O)n4cc(Br)ccc4n3)nc3ccsc3c2=O)cc1` gave Env fusion inh 21, PABP FP inh 2, Rce1 inhib inactive, CSC inhib 8 and eIF4H FP inh 10.
O=C(NCc1ccco1)/C(=C\c1cccs1)NC(=O)c1cccs1 was read as Env fusion inh -3, PABP FP inh 20, MT1-MMP act inh 3, Rce1 inhib inactive, CSC inhib 9, eIF4H FP inh 5 and MT1-MMP act inh RFP 6.
Screening COC(=O)c1ccccc1SC(CC(=O)c1ccccc1)c1ccc(F)cc1 (stereo unspecified) returned Env fusion inh 3, PABP FP inh 2, MT1-MMP act inh -2, Rce1 inhib inactive, UUG fidelity -3, CSC inhib -10, eIF4H FP inh 1 and MT1-MMP act inh RFP -2.
Cc1ccc(O)c(C2=NCCNC(C(F)(F)F)=C2)c1 was read as Env fusion inh -162, PABP FP inh -4, MT1-MMP act inh 6, Rce1 inhib inactive, UUG fidelity -7, CSC inhib -1, eIF4H FP inh 3 and MT1-MMP act inh RFP 1.
COc1ccc(OCCN2C(=O)NC(C)(c3ccc(C)cc3)C2=O)cc1 (stereo unspecified) was read as Env fusion inh -24, PABP FP inh 0, MT1-MMP act inh -3, Rce1 inhib inactive, UUG fidelity -10, CSC inhib -1, eIF4H FP inh 2 and MT1-MMP act inh RFP -6.
C=CCn1c(COc2cccc3ccc(C)nc23)nnc1SCC(=O)OC was read as PABP FP inh 7, MT1-MMP act inh -9, Rce1 inhib inactive, UUG fidelity -6, CSC inhib -8, eIF4H FP inh 8 and MT1-MMP act inh RFP -12.
For Cc1ccc(CNc2ccc(N3CCOCC3)cc2)cc1 the results were Env fusion inh -18, PABP FP inh 0, MT1-MMP act inh 2, UUG fidelity -15, CSC inhib -14, eIF4H FP inh -6 and MT1-MMP act inh RFP -1.
For C#CCOc1nc(Nc2cccc([N+](=O)[O-])c2)nc(OCC#C)n1 the results were Env fusion inh 4, PABP FP inh 9, MT1-MMP act inh 0, Rce1 inhib inactive, UUG fidelity -8, CSC inhib 1, eIF4H FP inh 4 and MT1-MMP act inh RFP -4.
For Cc1ccc2nc(-c3ccc(NC(=O)COC(=O)c4cncc(Br)c4)cc3)sc2c1 the results were Env fusion inh -129, PABP FP inh -1, MT1-MMP act inh 4, Rce1 inhib inactive, eIF4H FP inh -2 and MT1-MMP act inh RFP 2.
Screening C[C@@H]1O[C@@H](O[C@H]2[C@H](Oc3cc(O)c4c(c3)OC(c3ccc(O)cc3)CC4=O)O[C@H](CO)[C@@H](O)[C@@H]2O)[C@H](O)[C@H](O)[C@H]1O (stereo partly specified) returned Env fusion inh -7, MT1-MMP act inh 3, Rce1 inhib inactive, UUG fidelity -12, CSC inhib -15 and MT1-MMP act inh RFP 4.
For Cc1ccc(NC(=O)C(C)OC(=O)c2ccc(Cl)nc2)cc1S(=O)(=O)N1CCOCC1 (stereo unspecified) the results were Env fusion inh -20, MT1-MMP act inh 4, Rce1 inhib inactive, UUG fidelity -5, CSC inhib 0 and MT1-MMP act inh RFP 2.
Cc1ccc(NNC(=O)c2c(F)cccc2Cl)cc1C was read as Env fusion inh 13, PABP FP inh 4, MT1-MMP act inh -4, Rce1 inhib inactive, CSC inhib -3, eIF4H FP inh 5 and MT1-MMP act inh RFP -3.
`Cc1cccc(/C(N)=N/OC(=O)CCC2CCCCC2)c1` gave Env fusion inh -12, PABP FP inh -17, MT1-MMP act inh 12, Rce1 inhib inactive, CSC inhib 14, eIF4H FP inh -2 and MT1-MMP act inh RFP 12.
For CC(=O)NS(=O)(=O)c1ccc2c(c1)Cc1cc(S(=O)(=O)NC(C)=O)ccc1-2 the results were Env fusion inh -32, PABP FP inh 6, MT1-MMP act inh -1, Rce1 inhib inactive, UUG fidelity -15, CSC inhib -22, eIF4H FP inh -1 and MT1-MMP act inh RFP 4.
`Clc1nc2ccccc2nc1-c1ccccc1` gave Env fusion inh -9, PABP FP inh -5, MT1-MMP act inh 5, Rce1 inhib inactive, UUG fidelity -2, CSC inhib -12, eIF4H FP inh -8 and MT1-MMP act inh RFP 1.
Nc1ccccc1SCC(=O)Nc1nccs1 was read as Env fusion inh 1, PABP FP inh -3, MT1-MMP act inh 1, Rce1 inhib inactive, CSC inhib 6, eIF4H FP inh -8 and MT1-MMP act inh RFP 1.
`CO/N=C/C(=N\Nc1ccc(OC)cc1)C(=O)c1ccc(OC)cc1` gave PABP FP inh -2, MT1-MMP act inh -2, Rce1 inhib inactive, UUG fidelity -12, CSC inhib 39, eIF4H FP inh 2 and MT1-MMP act inh RFP 2.
Cc1noc(C(=O)Nc2ccccc2C(F)(F)F)c1Cl was read as Env fusion inh -32, PABP FP inh 6, MT1-MMP act inh -1, Rce1 inhib inactive, UUG fidelity -11, CSC inhib -15, eIF4H FP inh -1 and MT1-MMP act inh RFP 1.
For O=C(NCc1cccs1)c1nc(-c2cccs2)no1 the results were Env fusion inh -12, PABP FP inh -11, MT1-MMP act inh -1, Rce1 inhib inactive, CSC inhib -2, eIF4H FP inh -10 and MT1-MMP act inh RFP -3.
`Cc1ccnc(NC(=O)c2cccc(NC(=O)c3ccc(Cl)c(Cl)c3)c2)c1` gave Env fusion inh -5, MT1-MMP act inh 2, UUG fidelity -16 and MT1-MMP act inh RFP -4.
For O=c1c(C(c2ccc(F)cc2)c2c(O)nc3n(c2=O)CCCS3)c(O)nc2n1CCCS2 the results were Env fusion inh 11, PABP FP inh 21, MT1-MMP act inh -3, Rce1 inhib inactive, UUG fidelity -4, CSC inhib -1, eIF4H FP inh 10 and MT1-MMP act inh RFP 1.
Screening CC1(C)CC(=O)C2=C(C1)C(c1cn(-c3ccccc3)nc1-c1ccccc1)C(C#N)=C(N)O2 (stereo unspecified) returned Env fusion inh -23, PABP FP inh -9, MT1-MMP act inh -8, Rce1 inhib inactive, UUG fidelity 4, CSC inhib 18, eIF4H FP inh 5 and MT1-MMP act inh RFP -6.
For COCCNC(=O)c1sc2ncn(CC(=O)N3CCCCC3)c(=O)c2c1C the results were PABP FP inh 12, MT1-MMP act inh 2, Rce1 inhib inactive, UUG fidelity -15, CSC inhib 5, eIF4H FP inh -2 and MT1-MMP act inh RFP 6.
For CCCc1cc(=O)oc2cc(OCC(=O)NC3CCN(Cc4ccccc4)CC3)ccc12 the results were Env fusion inh 4, PABP FP inh 3, MT1-MMP act inh 2, Rce1 inhib inactive, UUG fidelity -6, CSC inhib -9, eIF4H FP inh -9 and MT1-MMP act inh RFP 2.
`CC(=O)N1CCN(CC(O)COc2ccc(Br)cc2)CC1` (stereo unspecified) gave Env fusion inh -20, PABP FP inh 17, MT1-MMP act inh 0, Rce1 inhib inactive, UUG fidelity -6, CSC inhib -2, eIF4H FP inh 12 and MT1-MMP act inh RFP -2.

Screens from PubChem BioAssay.
